# Mtb betalactam – beta-lactam sensitization of Mtb H37Rv; inhibition, % at 25 µM; 330,000 compounds, 0.27% hits; M. tuberculosis H37Rv growth with meropenem, percent inhibition; hits of this screen are not shown here; AID 434955;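 active = about 74% or more and at least 40 points above the plate without the antibiotic, then above 30% in a dose series; inconclusive = first-round hits that could not be retested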;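 note: growth measured after seven days incubation then overnight dye step; 0% = bacteria only wells and 100% = bacteria with antibiotic; twin plates without the antibiotic show which effects depend on it; some results filed as inactive read as strong as hits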
# RecA intein inh – inhibitors of M. tuberculosis RecA intein splicing; P9WHJ3; cell-free RecA intein splicing, fluorescence; inhibition, %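 (about 9 µM by stock and volumes)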; 290,000 compounds, 0.75% hits; AID 2221; in the data active = inhibition above about 30%; inconclusive = no clear call, values can overlap the other calls;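 note: 0% = vehicle wells and 100% = reference inhibitor control wells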
# Target sequence (P9WHJ3 whole entry, looked up): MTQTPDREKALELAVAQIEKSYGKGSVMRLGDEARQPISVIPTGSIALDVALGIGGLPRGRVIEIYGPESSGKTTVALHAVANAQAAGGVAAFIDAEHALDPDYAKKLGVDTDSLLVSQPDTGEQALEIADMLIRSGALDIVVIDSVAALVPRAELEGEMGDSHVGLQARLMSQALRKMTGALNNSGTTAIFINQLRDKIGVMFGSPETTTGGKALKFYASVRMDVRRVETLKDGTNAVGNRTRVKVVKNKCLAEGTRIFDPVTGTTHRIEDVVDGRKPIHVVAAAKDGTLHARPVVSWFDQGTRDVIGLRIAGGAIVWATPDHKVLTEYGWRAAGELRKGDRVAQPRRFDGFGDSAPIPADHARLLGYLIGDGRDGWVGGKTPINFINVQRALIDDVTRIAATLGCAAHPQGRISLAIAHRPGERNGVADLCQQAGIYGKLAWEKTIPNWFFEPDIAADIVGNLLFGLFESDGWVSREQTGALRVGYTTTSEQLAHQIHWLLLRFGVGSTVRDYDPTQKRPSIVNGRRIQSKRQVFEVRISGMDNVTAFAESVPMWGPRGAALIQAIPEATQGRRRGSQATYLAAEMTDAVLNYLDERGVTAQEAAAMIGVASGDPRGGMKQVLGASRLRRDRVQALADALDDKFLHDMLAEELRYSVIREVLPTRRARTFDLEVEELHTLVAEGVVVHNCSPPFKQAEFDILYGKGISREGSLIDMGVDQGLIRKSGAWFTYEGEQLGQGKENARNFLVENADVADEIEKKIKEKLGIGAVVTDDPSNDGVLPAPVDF
# YopH PTP inh – inhibitors of Yersinia enterocolitica YopH tyrosine phosphatase | inhibition, %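 (about 10 µM by stock and volumes)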 | fluorescence Ex485/Em525 | 140,000 compounds, 0.16% hits;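 active = inhibition of 50% or more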;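 note: controls were vehicle for no effect and minimum signal wells for full effect; inactives centre near -20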
# Arbovirus inh – blocks arbovirus infection. arbovirus infection cell-based antiviral screen. inhibition, % at 10 µM. 200,000 compounds, 0.37% hits;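 active = inhibition from about 30%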;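 note: bluetongue infection of BSR cells; cell survival read as ATP light after 72 h; 0% = infected wells without compound and 100% = uninfected wells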
# Mtb H37Rv – M. tuberculosis H37Rv growth inhibitors, H37Rv strain (AID 1626) | M. tuberculosis H37Rv growth inhibition; higher % means a stronger effect | one-dose inhibition, % at 10 µM; IC50 in µM for titrated hits | 220,000 compounds, 0.95% hits;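 active = confirmed in a dose series; inconclusive = inhibition above 80% but not taken into the dose series; inactive = below 80% or under 30% at every dose of the series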;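 note: bacteria incubated seven days before Alamar blue readout; 0% = bacteria only wells and 100% = bacteria with antibiotic wells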
# Arbovirus inh repeat – second read-out of Arbovirus inh, no call of its own (marks repeat the call); inhibition, %; measured here: 10K subset replicate screen; many hits read low in the repeat;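 first of two repeat runs on a subset; 0% = infected and 100% = uninfected wells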
# An asterisk follows results filed as active; ? = inconclusive; nt = no result given. Not all compounds are listed; rates above refer to the full screens.
SMILES,Mtb betalactam,RecA intein inh,YopH PTP inh,Arbovirus inh,Mtb H37Rv,others
O=C1CC(c2c(F)cccc2Cl)C(n2cncn2)C(O)=C1C1NCCc2ccccc21 (centres undefined),4,-0.4,nt,6,1%,
CCOC(=O)/C(C#N)=C1/C=C(C)c2ccccc2N1,-3,nt,nt,-2,3%,
Cc1[nH]c2ccccc2c1/C=C(\C#N)S(=O)(=O)c1ccccc1,-3,-13,0,6,4%,
CN(C)CC#CCCCCCCC#CCN(C)C,-11,nt,-20,3,-5%,
Cn1cc(C=C(C#N)C#N)c2ccccc21,-5,-1.1,nt,-3,-1%,
O=C(COc1ccc(S(=O)(=O)N2CCCCC2)cc1)N1CCOCC1,-14,1.0,nt,nt,nt,
CC(=O)Nc1cc(-c2ccc(Cl)cc2)nn1-c1ccccc1,-6,nt,-22,4,2%,
Cc1ccc(/C=N/Nc2ccc(F)cc2F)s1,84,4.1,nt,nt,nt,
Cn1c(-c2ccccc2)cnc1SCC(=O)N1CCCCC1,-3,2.0,5,-2,-5%,
Cc1ccc2cc(C)c(Sc3nnnn3-c3ccccc3)nc2c1,1,-2.0,-22,3,7%,
CC1=NN(/C(=N\c2nnc(C)s2)Nc2ccc(C)cc2)[C@H](c2ccc(C)cc2)S1,3,2.1,45,-14,-1%,
Cc1cccc(N2CCN(C(=O)CCNS(=O)(=O)c3cccs3)CC2C)c1 (centres undefined),-6,-0.3,nt,nt,nt,
COC(=O)C1(S(=O)(=O)c2cc(Br)cc3c2N(C(C)=O)CC3)CC1,-9,-0.8,-50,-6,1%,
Cc1ccc(NC(=O)Nc2cnc3ccccc3c2)cc1,5,-3.3,nt,-5,-2%,
CN(C)S(=O)(=O)c1ccc(C(=O)NCCN2C(=O)S/C(=C\c3cccnc3)C2=O)cc1,18,6.5,nt,5,-1%,
CCc1cc(=O)oc2c(C)c(O[C@@H]3O[C@H](CO)[C@@H](O)[C@H](O)[C@H]3O)ccc12,?,-2.7,nt,nt,nt,
CCOc1ccccc1-n1c(CN2CCN(C(=O)c3ccco3)CC2)nc2ccccc2c1=O,-10,3.9,33,-6,nt,
C=CCn1c(SCC(=O)Nc2ccc(OC)cc2)nc2c([nH]c3ccccc32)c1=O,-18,-0.2,nt,nt,nt,
COCCn1nnnc1C(C(C)C)N1CCSCC1 (centres undefined),0,0.8,nt,-4,-1%,
COc1ccc(N/C=C2\CCc3ccccc3C2=O)cc1,82,71*,nt,-30,>100µM*,
CCC(c1nnc(SCC(=O)Nc2cccnc2Cl)n1-c1ccccc1)N(C)C (centres undefined),1,-2.6,nt,-1,1%,
Cc1cc(OC(C)C(=O)Nc2ccncc2)ccc1Cl (centres undefined),11,-1.6,nt,nt,nt,
COc1cccc(-n2ccnc2SCC(=O)Nc2ccccc2F)c1,-9,4.0,nt,4,-3%,
COc1ccc(C(=O)Cc2ccc3c(c2)OCO3)c(O)c1,6,-2.3,-18,0,10%,
COc1cccc(-n2c(=S)sc3c(=O)n(-c4ccccc4OC)c(=S)[nH]c32)c1,6,-17,nt,2,12%,
CC(C)NS(=O)(=O)c1ccc(OCC(=O)NCc2ccc3c(c2)OCO3)c(Cl)c1,-1,2.0,4,6,2%,
O=C(NN=C1CCCC1)c1ccc(O)cc1,-1,-0.3,nt,nt,nt,
CCOC(=O)CSc1nc2ccccc2c(=O)n1CC1CCCC1,5,7.9,33,6,5%,
Cc1cc(C)c(S(=O)(=O)N2CCN(CCN3C(=O)c4cccc5cccc(c45)C3=O)CC2)cc1[N+](=O)[O-],nt,nt,-4,6,4%,
Cc1cc(NC(=O)CS(=O)(=O)c2ccc(Cl)cc2)no1,-2,-4.1,nt,nt,nt,
O=C(O)CSc1nc2ccccc2[nH]1,1,-4.6,-12,3,-10%,
CC(=O)Nc1ccc(C(=O)OCC(=O)Nc2ccc(N3CCOCC3)cc2)cc1,11,-4.6,nt,0,6%,
O=C(N=NC(=O)c1ccc2c(O)n(C3CCCCC3)c(O)c2c1)c1cccnc1,-13,-2.1,0,4,-4%,
C=CCNS(=O)(=O)c1cc(S(=O)(=O)NCC=C)c(OC)cc1OC,-3,-1.5,nt,6,0%,
COc1cc(NC(=O)c2ccc3c(SCC(=O)O)c4c(nc3c2)CCC4)cc(OC)c1OC,9,-1.1,nt,nt,nt,
COc1ccc(N2CCN(C(=O)c3cn(C)c(=O)c4c3c3ccccc3n4C)CC2)cc1,89,nt,-47,9,1%,

# Of the compounds above, 2 contain a COOH group.
SMILES,Mtb betalactam,RecA intein inh,YopH PTP inh,Arbovirus inh,Mtb H37Rv,others
O=C(O)CSc1nc2ccccc2[nH]1,1,-4.6,-12,3,-10%,
COc1cc(NC(=O)c2ccc3c(SCC(=O)O)c4c(nc3c2)CCC4)cc(OC)c1OC,9,-1.1,nt,nt,nt,

# Retrieved one by one from the entries so far (three):
SMILES,Mtb betalactam,RecA intein inh,YopH PTP inh,Arbovirus inh,Mtb H37Rv,others
C=CCn1c(SCC(=O)Nc2ccc(OC)cc2)nc2c([nH]c3ccccc32)c1=O,-18,-0.2,nt,nt,nt,
COc1cccc(-n2ccnc2SCC(=O)Nc2ccccc2F)c1,-9,4.0,nt,4,-3%,
O=C(COc1ccc(S(=O)(=O)N2CCCCC2)cc1)N1CCOCC1,-14,1.0,nt,nt,nt,

# (listing goes on)
SMILES,Mtb betalactam,RecA intein inh,YopH PTP inh,Arbovirus inh,Mtb H37Rv,others
O=C(O)c1cc(NS(=O)(=O)c2ccc(N3CCCCC3)c([N+](=O)[O-])c2)cc(C(=O)O)c1,-6,1.1,-34,3,-14%,
O=C(O)CCN1C(=O)C2C3c4ccccc4C(c4ccccc43)C2C1=O (centres undefined),-4,-3.1,nt,nt,-8%,
CCCc1[nH]n(-c2nc3ccccc3s2)c(=O)c1C=NCCCOC,1,0.1,nt,nt,-4%,
O=S(=O)(/C=C/c1ccccc1)n1cnc2ccccc21,48,2.2,-27,-5,-3%,
O=C1N(CCCCN2C(=O)C3(OCCO3)c3ccccc32)c2ccccc2C12OCCO2,-11,0.9,2,6,1%,
COc1ccc(NC(=S)Nc2ccc3nccnc3c2)cc1,2,-11,-6,5,-3%,
COc1ccc(C(=O)COc2nc(C)cc(C)c2C#N)cc1,-3,1.8,10,-4,5%,
NC(=O)C1CCN(CC(=O)Nc2cccc(C(=O)Nc3cccc(C(F)(F)F)c3)c2)CC1,-12,0.5,-10,-8,2%,
COc1ccc(CC(=O)Nc2cccc3ccccc23)cc1OC,-1,2.8,nt,nt,nt,
Cn1nnc2cc(NC(=O)N3CC4(C)CC3CC(C)(C)C4)ccc21 (centres undefined),-3,2.5,-9,-3,-9%,
COc1cc2oc3ccc(C#Cc4ccccn4)cc3c(=O)c2cc1OC,0,1.2,nt,nt,-6%,
Cc1ccc(C)n1-c1nnc(N2CCC(C(=O)N3CCN(C)CC3)CC2)s1,?,1.7,nt,nt,nt,
COc1ccc(N(CC(=O)NC2CCCC2)C(=O)c2ccc(C)s2)cc1OC,-2,-3.6,nt,nt,nt,
O=C(O)c1ccc(N2C(=O)c3cccc4c(C(=O)O)ccc(c34)C2=O)cc1,-8,10,nt,21,0%,
Cc1cccc(-n2nnnc2SCC(=O)Nc2ccc(N3CCN(C)CC3)cc2)c1,14,2.7,nt,nt,nt,
Cc1ccc(NC(=O)CSc2nnc([C@@H]3CCCN3C(=O)OC(C)(C)C)o2)c(C)c1,nt,-0.8,-43,4,6%,
COc1ccc(C(=O)NCc2nnc(SCC(=O)N3CCCCCC3)o2)cc1OC,2,-1.5,nt,nt,nt,
Cc1cccc(C(=O)N/N=C/c2ccccn2)c1,78,-9.3,-23,-10,16%,
ClC1(CNc2ccccc2)CCN(Cc2ccccc2)CC1,-14,2.3,nt,nt,nt,
Cc1ccc(N2CCN(C(=O)c3ccccc3NC(=O)C3CCCCC3C(=O)O)CC2)cc1 (centres undefined),3,-2.7,-26,5,-3%,
O=C(NCc1cccs1)C1CCCN(S(=O)(=O)c2cccc3cccnc23)C1 (centres undefined),5,-0.3,-24,2,-5%,Arbovirus inh repeat=1
Cc1ccccc1-n1cnnc1SCC(=O)N1CCN(c2ccccc2)CC1,5,0.5,11,13,2%,
COc1ccc(COc2cccc3ccc(C)nc23)cc1F,10,-2.1,nt,nt,nt,
CC(=O)OCC(=O)[C@@]1(O)CC[C@H]2[C@@H]3CCC4=CC(=O)C=C[C@]4(C)[C@H]3[C@@H](O)C[C@@]21C,4,0.4,-23,17,-10%,
CN1CCN(CC(=O)N2c3ccc(S(=O)(=O)NCCNC(=O)OC(C)(C)C)cc3C(=O)Nc3cccnc32)CC1,-2,-5.3,nt,nt,1%,
c1ccc(-c2nc(-c3cccnc3)n[nH]2)cc1,-5,0.3,-26,-1,5%,
CCOC(=O)c1cn(CC(=O)Nc2ccccc2C(=O)OCC)nn1,-1,-26,-17,-4,-5%,
Cc1ccc(C(=O)N/C(=C/c2cccc([N+](=O)[O-])c2)C(=O)NC(C)C)cc1,-4,-4.6,-19,2,-7%,
COc1ccc(S(=O)(=O)N2CCC(O)(c3ccc4c(c3)OCO4)CC2)cc1,-5,-2.5,10,-4,-1%,
Cc1c(NC(=O)c2cc(-c3cccc(Cl)c3)on2)c(=O)n(-c2ccccc2)n1C,12,-0.5,nt,nt,nt,
O=C(O)c1nccnc1C(=O)NCCc1c[nH]c2ccccc12,-2,-1.1,nt,3,6%,
COc1ccc(CCN2C(=O)CS/C2=N\NC(=O)c2cccs2)cc1OC,-3,0.7,nt,-1,-6%,
Cc1cccn2c(=O)c3cc(C(=O)NC4CCCCCC4)sc3nc12,1,-64,nt,nt,nt,
CCCC(=O)Nc1ccc2c(c1)nc(CN1CCCCC1)n2C,-4,-0.3,-22,4,2%,
Cc1ccccc1OCC(=O)NCC(=O)N/N=C/c1ccc(Br)o1,1,-2.4,-13,-2,-2%,
CCOC(=O)C1CCN(C(=O)CNC(=O)c2nn(-c3ccc(OC)cc3)c(=O)c3ccccc23)CC1,-2,0.7,nt,nt,nt,
O=C(CN(Cc1ccccc1)S(=O)(=O)c1ccc2c(c1)OCCO2)Nc1ccc2c(c1)OCCO2,0,nt,-52,2,0%,
CC(=O)N1N=C(c2ccccc2O)CC1c1cccs1 (centres undefined),-11,-0.6,nt,nt,nt,
COc1cc(CN2CCCC(N3CCc4ccccc4C3)C2)c(Cl)cc1O (centres undefined),2,-1.0,nt,nt,nt,
CCSc1nnc(NC(=O)C2CCCCC2C(=O)OCC(F)(F)C(F)F)s1 (centres undefined),-1,2.6,-43,14,-6%,
Cc1ccsc1C(=O)Nc1n[nH]c(C(F)(F)F)n1,3,19,nt,nt,4%,
COc1ccccc1CNC(=O)C1CCN(S(=O)(=O)c2ccc(-n3cnnn3)cc2)CC1,-7,-1.6,nt,nt,nt,
CC1Sc2ccc(S(=O)(=O)CCC(=O)N3CCCCC3)cc2NC1=O (centres undefined),-1,-0.9,nt,nt,nt,
O=C(NC1CC1)C1CCN(S(=O)(=O)c2ccc(Cl)cc2)CC1,-2,-4.1,nt,nt,nt,
CCOC(=O)N=S(N)(=O)c1ccccc1 (centres undefined),-4,-1.0,-21,0,-2%,
Cn1c(NN)nc2sc3c(c2c1=O)CC(C)(C)OC3,16,-2.8,-17,-27,-8%,
CCOC(=O)c1nc(Nc2ccccc2C)c2ccccc2n1,1,-0.5,nt,19,25%,
C=CC(=O)NC1CC2CCC1(C)C2(C)C (centres undefined),-8,-3.5,nt,nt,6%,
COc1cccc(CNC(=O)C2CCN(c3nnc(N4CCCC4=O)s3)CC2)c1,-3,0.2,nt,nt,nt,
CCSc1nc2ccccc2n1C(=O)c1ccc(S(=O)(=O)N2CCCCCC2)cc1,-5,11,9,4,0%,
COc1ccc(-n2c(=S)[nH]c3cc(C(=O)Nc4cccc(C)c4)ccc3c2=O)cc1,8,-0.9,-19,-10,5%,
c1csc(-c2nn3c(C4COc5ccccc5O4)nnc3s2)c1 (centres undefined),10,2.7,-15,0,1%,
Cc1cccc(NC(=O)COc2coc(CN3CCN(Cc4ccccc4)CC3)cc2=O)c1,18,-0.1,nt,nt,nt,
COc1cccc(-n2nnnc2SCC(=O)Nc2ccccc2OC)c1,-3,-1.4,nt,nt,nt,
CCN(C(=O)COC(=O)c1cncc(Br)c1)C1CCS(=O)(=O)C1 (centres undefined),2,0.5,nt,6,-6%,
Cc1ccc(C)c(N2CCN(S(=O)(=O)c3cc4c(cc3C)NC(=O)CO4)CC2)c1,4,1.0,nt,nt,nt,
O=C(Nc1ccccc1)C1CCCN1C(=O)NCc1ccccc1 (centres undefined),4,1.3,nt,3,2%,
C=CCNc1nc(NCCN2CCOCC2)nc(N2CCOCC2)n1,-8,-2.4,-22,4,10%,
CC(C)c1ccc(NC(=O)NN2CCOCC2)cc1,-1,nt,nt,19,-3%,

# Bioassay records as filed in PubChem.
